High-throughput results as filed in PubChem BioAssay.
HPGD block: qHTS Assay for Inhibitors of HPGD (15-Hydroxyprostaglandin Dehydrogenase); purified HPGD, NADH fluorescence kinetic, PGE2 substrate; AID 894, 2007; 4.3% of 150,000 active; Potency, µM, without a hit: top-dose activity change, negative = inhibition, hits mostly inhibitors; 15-hydroxyprostaglandin dehydrogenase [NAD(+)] (Homo sapiens), P15428; active = well fitted inhibition curve with a large enough effect (not every such curve was filed as active); inconclusive = small, poorly fitted or top-dose-only effect, or another doubt; inactive = no such curve, though single readings can be large or run the other way;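 further: top concentration of the series not given in the record; plate controls included wells without enzyme; inactives centre near -10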
Target sequence (P15428 whole entry, looked up): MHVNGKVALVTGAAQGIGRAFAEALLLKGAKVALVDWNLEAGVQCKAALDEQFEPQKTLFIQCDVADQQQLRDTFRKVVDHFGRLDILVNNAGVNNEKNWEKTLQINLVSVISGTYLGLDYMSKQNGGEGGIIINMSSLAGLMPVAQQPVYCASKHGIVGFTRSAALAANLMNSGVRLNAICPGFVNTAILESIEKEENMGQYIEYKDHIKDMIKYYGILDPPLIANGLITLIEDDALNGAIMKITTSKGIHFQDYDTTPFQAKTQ
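NADH formation kinetics: reaction with 30 uM PGE2 and 1 mM NAD+ (final), 20 nM enzyme, Tris-HCl pH 8 with Tween 20, after 15 min compound preincubation at room temperature. Fluorescence change, last versus first of five reads.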
An asterisk follows results filed as active; ? = inconclusive; & = joins results of further samples. On the % scale 0 is the no-effect control and ±100 the full control effect; potency means the concentration at half of the fitted maximal effect. Not all compounds are listed. The share of hits here may be higher or lower than overall.

SMILES	HPGD block
CCc1ccc(NS(=O)(=O)c2ccc3[nH]cc(C(=O)NCC4CCCO4)c(=O)c3c2)cc1 (configuration not stated)	?
COc1cc(/C=C(/C#N)c2nc3ccccc3[nH]2)ccc1OCC(=O)Nc1ccccc1C(C)C	?
O/N=C/c1ccc(OCc2ccccc2)c(Cl)c1	-25%
CC(C)N1CCC(=NNC(=O)c2ccccc2[N+](=O)[O-])CC1	-5%
CC(C)(C)c1ccc(-c2nc3c(C#N)c(-c4ccc5c(c4)OCO5)ccn3n2)cc1	?
CCc1ccc(CC2(O)CC(C)N(C)CC2C)cc1 (configuration not stated)	-9%
CCCCC/C=C\C/C=C\C/C=C\C/C=C\CCCCCC(=O)NCCc1ccc(O)c(O)c1	-20%
CCN(CC)S(=O)(=O)c1cccc(NC(=S)NC(=O)/C=C/c2ccc(S(=O)(=O)N3CCOCC3)cc2)c1	-11%
CC(C)(C)C(=O)Nc1cc(S(=O)(=O)Nc2ccc(Cl)cc2)ccc1Cl	-17%
CCOC(=O)N1CCC(NC(=O)C(Cc2ccccc2)NC(=O)c2ccco2)CC1 (configuration not stated)	-4%
O=C(O)CCn1c(-c2ccccc2)cc2c1CCCC2=O	?
COc1cccc([C@@H]2Oc3ccc(OC)cc3C[C@H]2OC(=O)NS(=O)(=O)c2ccc(F)cc2)c1	-8%
O=S(=O)(NCC(c1cccnc1)N1CCOCC1)c1cccs1 (configuration not stated)	11%
O=C(NCc1ccco1)c1cc(-c2cccs2)nc2ccccc12	?
CCC(=O)Nc1cc(C(C)(C)C)ccc1C(C)=O	0%
CCCNCc1cc(Cl)c(OCC)c(Cl)c1	-8%
CCOC(=O)Cn1c2c(c(-c3ccccc3OC)cc1=O)CCCC2	-14%
CCOC(=O)C1CCN(C(=O)CN(c2ccc(OC)cc2)S(=O)(=O)c2c(C)noc2C)CC1	-10%
COC(=O)Cn1nc(C)c2ccccc2c1=O	6%
Cc1cc(C)c(S(=O)(=O)n2nc(C)c(Br)c2C)c(C)c1	-7%
N#Cc1c(NCCN)nc(-c2ccco2)c2c1CCCC2	?
CC1(C)COC(c2cccn2Cc2ccccc2Cl)=N1	-8%
CCCCCc1nc2c(=O)n(C)c3ccccc3c2o1	-12%
CCC(C)N(C)Cc1cccc(C2(O)CCN(S(=O)(=O)c3ccc(F)cc3)CC2)c1 (configuration not stated)	3%
O=c1cc(-c2ccc(O)cc2)oc2c([C@@H]3O[C@H](CO)[C@@H](O)[C@H](O)[C@H]3O)c(O)c([C@@H]3O[C@H](CO)[C@@H](O)[C@H](O)[C@H]3O)c(O)c12	-19%

Structural class: the entries above containing two or more sulfur atoms (2)
SMILES	HPGD block
CCN(CC)S(=O)(=O)c1cccc(NC(=S)NC(=O)/C=C/c2ccc(S(=O)(=O)N3CCOCC3)cc2)c1	-11%
O=S(=O)(NCC(c1cccnc1)N1CCOCC1)c1cccs1 (configuration not stated)	11%

Going on with the list:
SMILES	HPGD block
CC(=O)C(C)Oc1ncn(-c2ccccc2)n1 (configuration not stated)	-8%
CCN(CC(=O)NC1CCS(=O)(=O)C1)C(=O)COc1ccccc1-c1ccccc1 (configuration not stated)	-9%
O=C1CC(N(C(=O)c2ccco2)c2ccc(F)cc2)C(=O)N1c1ccc(F)cc1 (configuration not stated)	-17%
COc1ccc(C(=O)CSc2nnnn2Cc2ccccc2)cc1	-19%
c1coc(Cn2c(-c3ccco3)nc3ccccc32)c1	-27%
O=C(CCCCn1c(=O)[nH]c2ccccc2c1=O)N1CCN(c2cccc(C(F)(F)F)c2)CC1	-9%
Cc1nc2sc3c(c2c(=O)[nH]1)CCC3	-15%
Cc1cccc(N2C(=O)CC(N3CCN(c4ccccc4)CC3)C2=O)c1 (configuration not stated)	-12%
Cn1c2ccccc2c2ncn(CCCN3CCOCC3)c(=O)c21	?
CCSC1=NC(=O)/C(=C2/C=Cc3ccccc3N2CC)S1	-13%
CC(C)c1ccc(NC(=O)C(c2ccc3c(c2)OCO3)N2CCN(C(=O)c3ccco3)CC2)cc1 (configuration not stated)	-24%
COc1ccc(N2Nc3n[nH]c(N)c3N2)cc1	-11%
NCCCC[C@H]1NC(=O)[C@H](CCC(=O)O)NC(=O)c2cc([N+](=O)[O-])cc(I)c2OCC[C@@H](C(N)=O)NC1=O	-11%
CC1(C)Cc2c(C#N)c(NCCc3ccccc3)nc(-c3ccco3)c2CO1	?
Cc1cc(C)c(C#N)c(SCc2ccc(C#N)cc2)n1	-5%
COc1ccc(CCN2C(=O)c3ccncc3C2=O)cc1OC	-12%
COc1ccc(Nc2ccc(C(=O)O)cc2[N+](=O)[O-])cc1	-20%
O=c1c2c(n3nnnc3n1-c1ccccc1)-c1ccccc1CC21CCCC1	-15%
CC(Oc1ccc(Cl)cc1Cl)C(=O)NCCCCc1ccccc1 (configuration not stated)	-15%
O=C1CC(=C(c2ccccc2)c2ccccc2)C(=O)N1CCN1CCN(c2cccc(Cl)c2)CC1	-9%
Cn1c(=O)oc2cc(C(=O)c3ccccc3)ccc21	?
CCOC(=O)c1c(C)[nH]c(C(=O)/C(C#N)=C/c2ccc(OCC)cc2)c1C	-16%
O=C(O)c1cccc(NC(=O)C2CCCO2)c1 (configuration not stated)	-18%
CN=C1c2cc3c(Br)c(OC)ccc3n2CCN1C	-10%
Cc1ccc2c(c1)N(CC(=O)OC(CC(C)C)C(=O)NC1CCCC1)C(=O)CO2 (configuration not stated)	-14%

(further entries)
SMILES	HPGD block
Cc1cc(S(=O)(=O)N2CC(=O)N(CCc3ccccc3)C(=O)C2)ccc1F	-10%
C=C(C)COc1ccc(-c2nc(N)ncc2Oc2ccc(OC)cc2)c(O)c1	-18%
O=C(CSc1ccc(-c2ccco2)nn1)c1cccc([N+](=O)[O-])c1	-23%
O=C(c1ccc2c(c1)OCCO2)C1CCN(S(=O)(=O)c2ccccc2F)CC1	-15%
Cn1c(SCC(=O)Nc2ccc3c(c2)OCCO3)nnc1-c1ccccn1	-14%
CCCOc1ccccc1C1CC(=O)NC2=C1C(=O)CCC2 (configuration not stated)	-14%
COc1ccc(OC)c(C(=O)c2nc3c(n2O)CCCCC3)c1	?
Cc1c(C(=O)NCc2ccccn2)sc2nc(-c3ccccc3)cn12	-10%
CCOc1ccc(-n2cnnn2)cc1S(=O)(=O)Nc1c(C)cccc1C	14µM*
CC1CCCCC1NC(=O)c1ccc(CSc2nc3ccncc3[nH]2)cc1 (configuration not stated)	?
O=C(NCCCN1CCCC1)Nc1cccc2ccccc12	-12%
CC1(C)C(=O)OC(c2cccn2-c2ccc([N+](=O)[O-])cc2)C(C)(C)C1=O (configuration not stated)	-6%
Cc1ccc(C(=O)Nc2sc(C)c(C)c2C(=O)c2ccccc2)cc1	20µM*
CCn1c(SCc2nc3ccccc3[nH]2)nnc1-c1cnccn1	-17%
Cc1ccc(CNC(=O)c2ccc3c(=O)n(CC4CCCO4)c(=S)[nH]c3c2)cc1 (configuration not stated)	-9%
CCOc1ccc(NS(=O)(=O)c2ccc(NC(C)=O)c(OC)c2)cc1	-1%
O=S(=O)(NCC(O)COCc1ccco1)c1cccs1 (configuration not stated)	-8%
Cc1cc(=O)[nH]c(SCC(=O)N2CCN(C(c3ccccc3)c3ccccc3)CC2)n1	-6%
COc1cccc(/C(O)=C2/C(=O)C(=O)N(CCN(C)C)C2c2ccc(Br)cc2)c1 (configuration not stated)	-9%
COc1ccc(OC)c(S(=O)(=O)Nc2ccccc2SC)c1	2%
CC(=O)O[C@@H]1[C@@]2(C)O[C@H]2CC[C@]23O[C@H]2[C@H](OC3=O)C2=C(C)C(=O)O[C@@]21O	1%
Cc1cc(NC(=O)CCC(=O)N(Cc2ccco2)C(C)(C)C(=O)NC2CCCCC2)no1	-6%
O=C(COc1ccc(Cl)cc1)Nc1cnn(Cc2c(Cl)cccc2Cl)c1	-9%
COc1ccc(C(=O)Nc2ccccc2N2CCN(C(=O)C(C)C)CC2)cc1Cl	-7%
CC(C)(C)c1ccc(Cn2nnc3c(=O)[nH]c(C4CCN(C(=O)Cc5cccs5)CC4)nc32)cc1	-19%

Arranged by value in HPGD block (falling): three from the list above.
SMILES	HPGD block
CC(C)N1CCC(=NNC(=O)c2ccccc2[N+](=O)[O-])CC1	-5%
Cc1ccc(CNC(=O)c2ccc3c(=O)n(CC4CCCO4)c(=S)[nH]c3c2)cc1 (configuration not stated)	-9%
CCCCCc1nc2c(=O)n(C)c3ccccc3c2o1	-12%

Five entries picked at random from those above:
SMILES	HPGD block
O=C(COc1ccc(Cl)cc1)Nc1cnn(Cc2c(Cl)cccc2Cl)c1	-9%
COc1cccc([C@@H]2Oc3ccc(OC)cc3C[C@H]2OC(=O)NS(=O)(=O)c2ccc(F)cc2)c1	-8%
O/N=C/c1ccc(OCc2ccccc2)c(Cl)c1	-25%
CC(C)c1ccc(NC(=O)C(c2ccc3c(c2)OCO3)N2CCN(C(=O)c3ccco3)CC2)cc1 (configuration not stated)	-24%
O=C(NCc1ccco1)c1cc(-c2cccs2)nc2ccccc12	?

Next part
SMILES	HPGD block
CC[C@H](C)[C@@H]1NC(=O)c2cc([N+](=O)[O-])cc(I)c2NCC[C@@H](C(N)=O)NC(=O)[C@H](CCCN=C(N)N)NC1=O	-2%
Cc1cc(C)c2c(=O)[nH]n(C(C)C)c2n1	-18%
Cn1c(Sc2ccc(Cl)cc2)c(C=O)c2ccccc21	-13%
CCCS(=O)(=O)N1CCN(C(=O)CCC2CCCC2)CC1	2%
N#CC1=C(N)OC2=C(C(=O)CC(c3ccco3)C2)C1c1ccc(OCc2c(F)cccc2Cl)cc1 (configuration not stated)	-22%
COc1ccc(OC)c(S(=O)(=O)N2CCC(C(=O)NCc3ccccc3)CC2)c1	-14%
C1CCN(c2nc3nonc3nc2N2CCCC2)C1	-6%
CC1CCCCC1NC(=O)CCS(=O)(=O)c1cccc2nonc12 (configuration not stated)	-7%
Cc1ccc(Cn2c(CN3CC(C)OC(C)C3)nc3c2c(=O)n(C)c(=O)n3C)cc1 (configuration not stated)	-5%
CCC1(C(=O)O)NC(c2cccc(OC)c2O)C2C(=O)N(c3ccccc3)C(=O)C21 (configuration not stated)	-3%
COC(=O)Cn1c(CN2CCc3ccccc3C2)nc2c1c(=O)n(C)c(=O)n2C	-7%
OC(COc1ccc(C2C=CCC2)cc1)CN1CCCCC1 (configuration not stated)	-2%
NC(N)=N/N=C(/c1ccccc1)c1ccc(O)cc1O	-4%
COc1ccc(C(=O)Nc2ccccc2C(=O)NCCN2CCOCC2)cc1	-11%
CCS(=O)(=O)c1ccc(O)c(NC(=O)COc2ccccc2)c1	-7%
Cc1cc(C)n(CCc2nc(-c3cccs3)cs2)n1	-8%
NCCC[C@@H](CC(=O)N[C@@H]1CCCC[C@H]1C(=O)N[C@H](CC(=O)N[C@@H](CCC(=O)O)CC(=O)O)Cc1c[nH]c2ccccc12)NC(=O)C[C@H](Cc1ccccc1)NC(=O)[C@@H]1CCCC[C@H]1N	-10%
CC(NC(=O)C1C(=O)N(CCO)C2(C)CC1c1ccccc1O2)c1ccccc1 (configuration not stated)	-9%
CC(=O)Nc1ccc(S(=O)(=O)N2CCC(NC(=O)c3ccco3)CC2)cc1	0%
Cc1ccc(-c2cccc(OC(=O)c3ccccc3F)c2)cc1	-2%
O=C(COc1ccc2ccc(=O)oc2c1)Nc1ccc2c(c1)OCCO2	?
COc1ccc(/C=C/C(=O)c2cc(F)ccc2OC(=O)c2ccccc2C)cc1OC	-16%
COc1ccc(S(=O)(=O)Nc2ccccn2)cc1OC	-12%
COC(=O)C1CCN(C(=O)c2cc3ccccc3oc2=O)CC1	-10%
N/C(=N\c1nc(CSc2ccc(Cl)cc2)cc(=O)[nH]1)Nc1cccc2ccccc12	-6%

(further entries)
SMILES	HPGD block
COC(=O)CSc1nc2ncccc2[nH]1	-17%
CC1(C)OC(=O)C(=CNc2ccc(F)cc2)C(=O)O1	-8%
Cc1ccc(C(=O)NC(NC(=S)Nc2ccc(S(N)(=O)=O)cc2)C(Cl)(Cl)Cl)cc1 (configuration not stated)	-6%
O=C(Cn1ccc2ccccc2c1=O)N1CCN(c2cccc(Cl)c2)CC1	-6%
CC(O)c1cc2c(cc1NC(=O)c1cnn3c1NC(c1ccco1)CC3C(F)(F)F)OCO2 (configuration not stated)	-7%
c1ccc(CSc2nnnn2-c2ccc3c(c2)OCCO3)nc1	-1%
COC(=O)c1sccc1NC(=O)/C=C/c1c(Cl)cccc1Cl	-22%
C=CCN1C(c2ccc(OCC)cc2)=CS/C1=C(\C#N)c1nnc2n1CCCCC2	28µM*
CCOC(=O)CNC(=O)CSc1nnc(-c2cccc(OC)c2)n1CC	-11%
CCOC(=O)CN1C(=O)N[C@@H](c2ccccc2)[C@H](C(C)=O)[C@H]1C	0%
Cc1ccc(-c2nnc(/C=C/c3ccccc3)o2)cc1	?
O=C(O)c1ccc2c(c1)C(=O)N(NC(=O)c1ccc(O)cc1)C2=O	-11%
O=C1CCN(C(=O)Nc2ccccc2Cl)N1	-2%
CC(C)CCSc1nnc(Cn2c(=O)sc3ccccc32)n1C	-8%
Cn1c(C(=O)N2CCN(C3CCCCC3)CC2)cc2c(=O)n(C)c3ccccc3c21	-8%
O=C(NC1CCCCC1)c1ccccc1NC(=S)NC(=O)C1CC1	-1%
COc1ccccc1N1CCN(S(=O)(=O)c2ccc3c4c(cccc24)C(=O)N3)CC1	-14%
Clc1ccc(-c2n[nH]c3c2CCC3)cc1Cl	18µM*
CCO/N=C(/C)c1c(O)cc(-c2ccccc2)n(-c2ccccc2)c1=O	-9%
O=C(Nc1ccc(-c2nc3ccccc3o2)cc1)c1ccc(N2CCOCC2)c([N+](=O)[O-])c1	-4%
CCc1ccccc1NC(=O)NC1CC2CCC(C1)N2Cc1cccs1 (configuration not stated)	5%
N#Cc1c(N)nc2c(c1-c1ccncc1)CCCC2	?
CC1(C)C(O)=C(c2nc3ccccc3[nH]2)C(=N)N1c1ccccc1	-9%
COCCn1c(-c2ccc(OC)cc2)cnc1N	-14%
NCCOB(c1ccccc1)c1ccccc1	-25%&-16%
CCCCNC(=S)NCCN1CCCCC1	-9%
